# High-throughput results: PubChem BioAssay, several laboratories
# RN4220 kill = S. aureus RN4220 growth inhibition | OD600, 16 h | inhibition, % (concentration not given with the values) | 0.33% of 330,000 active;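 active means z-score of -3 or lower and OD600 up to 0.18 on both plates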;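 further: plate controls were untreated cells for no effect and reference antibiotic for full effect; stock transfer was 100 nL into about 80 µL; one replicate is shown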
# Mtb hypoxia rep = inhibitors of hypoxia-regulated fluorescent reporter in Mycobacterium tuberculosis; M. tuberculosis hypoxia-regulated fluorescent reporter, fluorescence; fluorescence inhibition, % (no concentration beside the values); 0.1% of 300,000 active; AID 1159583;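 active means 35 to 45% if threefold the growth effect, above 45% if 1.5-fold the growth effect; inactive means the rest, general growth blockers included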;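 further: wells of about 50 µL received 100 nL stock; 0% = vehicle wells and 100% = reference inhibitor wells; whole bacteria with a GFP reporter of the hypoxia response; strong numbers were not always called active; many hits fall short of the cut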
# Sa ugtP lethal = growth inhibition of S. aureus ugtP deletion strain | growth inhibition, % (test concentration not listed) | S. aureus RN4220 ugtP deletion, OD600 growth, 16 h; some inactives read as strong as hits | AID 1259309 | 0.54% of 330,000 active;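 active means z-score under -3 and OD600 up to 0.15 on both plates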;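 further: plate controls were untreated wells for no effect and antibiotic for full effect; wells of about 80 µL received 100 nL stock; the first replicate is given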
# Autofluor counter = counter-screen for toxin protease inhibitors: compound fluorescence; compound autofluorescence counterscreen, microsphere flow cytometry; active compounds read high; fluorescence intensity (concentration not given with the values); 3.1% of 360,000 active; AID 624483;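 active means at least 3 SD above the mean of all compounds, about 16000 in these data; inconclusive means too few beads counted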;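 further: 100 nL of 1 mM stock went into each well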
# PrP 5UTR inh = inhibition of PrP 5' UTR reporter expression | cell-based PrP 5' UTR mRNA reporter, plate reader | inhibition, % (no concentration beside the values) | 0.35% of 340,000 active | AID 488862;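 active means every replicate at 50% or more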;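 further: 0 = median of the neutral control wells; tested in H4 reporter cells; numbers are from one replicate; inactives centre near -14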
# BJeLR lethal = kills HRASV12-expressing BJeLR cells | BJeLR (HRASV12) viability, CellTiter-Glo ATP luminescence, 48 h; reference of the scale not given here | 0.17% of 300,000 active | inhibition, % (concentration not given with the values) | AID 1554;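 active means replicate mean above 50%; inconclusive means above 50% but judged a plate artefact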;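 further: 50 nL library stock added to about 25 µL; numbers are from one replicate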
# Mtb hypoxia rep growth = second read-out of Mtb hypoxia rep, no call of its own (marks repeat the call); growth inhibition, %; measured here: M. tuberculosis growth (absorbance);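 0% = vehicle and 100% = reference antibiotic; read after six days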
# Numbers without * were called inactive; ? = inconclusive; . = not tested or not shown; & = joins results of further samples.
1) Cc1ccc(C)c(NC(=O)C(c2ccccc2)N2CCOCC2)c1 (configuration not stated)
2) COC(=O)c1ccc(COc2ncnc3sccc23)cc1
3) CC(=NNC(=O)CNC(=O)c1ccc2c(c1)OCCO2)c1ccco1
4) Cc1onc(-c2c(F)cccc2Cl)c1C(=O)Nc1nnc(C2CC2)s1
5) Cc1ccc(N=Nc2c(C)[nH]n(-c3ccccc3)c2=O)cc1
6) CCCCOc1ccc(CN2CCC(O)CC2)cc1
7) COc1ccc(Br)cc1S(=O)(=O)n1c([N+](=O)[O-])cnc1C
8) COCCn1c(=O)[nH]c2cc(C(=O)NCC3CCCO3)ccc2c1=O (configuration not stated)
Assay by compound,1,2,3,4,5,6,7,8
RN4220 kill,-7.0,2.6,0.8,7.2,-0.7,3.5,-1.1,4.8
Mtb hypoxia rep,3,16,7,3,3,4,12,12
Mtb hypoxia rep growth,-2,12,13,6,10,-4,6,7
Sa ugtP lethal,-7,11,5,-3,-1,0,10,17
Autofluor counter,2668,4570,.,2957,4148,10394,.,6540
PrP 5UTR inh,-24,-33,.,-20,-6,-22,-13,-9
BJeLR lethal,2,9,.,3,3,-3,4,16

9) COc1ccccc1/C=C/C=NNC(=O)CCC1C(=O)NN=C1C (configuration not stated)
10) CCN(CC)S(=O)(=O)c1ccccc1/C=N\O
11) CCN(Cc1nc2cc(Cl)ccc2c(=O)[nH]1)C(=O)c1cc2c(s1)CCCCC2
12) BrC(/C=N/N1CCN(Cc2ccccc2)CC1)=C/c1ccccc1
13) O=C(CN1C(=O)COc2ccccc21)N1CCN(c2ccccc2F)CC1
14) CC(C(=O)Nc1cccnc1)n1cc([N+](=O)[O-])cn1 (configuration not stated)
15) Cc1nc2ccccn2c1C(=O)NNC(=S)Nc1ccccc1
16) O=C(CSc1nnc(CCCOc2ccc(Cl)cc2Cl)o1)Nc1ccc(C(=O)O)cc1
Assay by compound,9,10,11,12,13,14,15,16
RN4220 kill,0.9,.,2.3,.,-1.6,2.9,2.3,9.6
Mtb hypoxia rep,-1,.,2,.,10,10,7,-3
Mtb hypoxia rep growth,1,.,-2,.,-1,-3,1,2
Sa ugtP lethal,2,.,-7,.,-1,2,3,-5
Autofluor counter,.,2115,.,3821,8174,3226,4131,2113
PrP 5UTR inh,.,-7,-18,-7,-14,2,-15,-30
BJeLR lethal,.,2,.,1,-7,-1,-5,18

17) Cc1cc(C(=O)CN2C(=O)NC(C)(c3ccccc3)C2=O)c(C)n1CC1CCCO1 (configuration not stated)
18) CCn1c(SCC(=O)c2cc(C)ccc2C)nc2cc(S(=O)(=O)N3CCOCC3)ccc21
19) COc1ccc(NC(=O)C2CCCN2S(=O)(=O)c2ccc(Cl)cc2)cc1 (configuration not stated)
20) CCCc1cc(=O)oc2cc(C)cc(OCC(=O)N3CCC(C(=O)O)CC3)c12
21) CCOc1ccc(-c2noc(CCCC(=O)NC3CCCCC3)n2)cc1OC
22) O=C1c2ccccc2C(=O)N1CCc1csc(-c2cccc(Cl)c2)n1
23) COc1ccc(CC2NCCC3=CC(=O)CCC32)cc1O (configuration not stated)
24) COc1ccc(NC(=O)C(=O)c2cn(CC(=O)N3CCOCC3)c3ccccc23)cc1OC
Assay by compound,17,18,19,20,21,22,23,24
RN4220 kill,5.4,1.6,0.5,2.9,2.0,3.9,5.2,0.8
Mtb hypoxia rep,-2,2,8,.,8,-10,16,3
Mtb hypoxia rep growth,-4,7,8,.,-2,4,7,0
Sa ugtP lethal,9,0,10,-4,13,-8,-8,7
Autofluor counter,2424,2904,3915,4237,3690,?,5421,4556
PrP 5UTR inh,-19,-16,-25,2,-22,-36,-14,-4
BJeLR lethal,-11,-26,5,-7,1,5,-5,6

25) NC(=O)[C@@H]1CCCNc2c(F)cc([N+](=O)[O-])cc2C(=O)N[C@@H](CCC(=O)O)C(=O)N[C@@H](CO)C(=O)N1
26) CCn1c(=O)c2cc(S(=O)(=O)NC3CCCCC3)ccc2n(CC)c1=O
27) COc1cc(C(=O)N/C(=C\c2cn(S(=O)(=O)N(C)C)c3ccccc23)C(=O)NCCCO)cc(OC)c1OC
28) Cc1cc(-c2nnc(CCC(=O)N(CC3CCC3)CC3CCCO3)o2)no1 (configuration not stated)
29) Cn1c(CC(=O)Nc2ccccc2C(F)(F)F)c(Sc2ccccc2)c2ccccc21
30) O=C(CSc1nnnn1-c1ccc(Cl)cc1)N1CCNC1=O
31) c1ccc(CNc2nc(NCc3ccccc3)c3ccccc3n2)cc1
32) N#Cc1ccccc1OCC(=O)N1N=C(c2cccs2)CC1c1ccco1 (configuration not stated)
Assay by compound,25,26,27,28,29,30,31,32
RN4220 kill,.,0.7,-2.4,2.9,16,1.1,92*,3.6
Mtb hypoxia rep,.,-3,6,7,-5,-4,-2,2
Mtb hypoxia rep growth,.,10,9,1,-5,6,-3,-8
Sa ugtP lethal,.,-5,4,1,-1,0,101*,6
Autofluor counter,2918,8158,4317,5017,7531,3544,4436,9010
PrP 5UTR inh,-3,-9,-13,-40,-9,3,-12,-9
BJeLR lethal,-2,-2,-1,4,-6,.,7,.

# 5 compounds already listed, sorted by heavy-atom count, highest first:
27) COc1cc(C(=O)N/C(=C\c2cn(S(=O)(=O)N(C)C)c3ccccc23)C(=O)NCCCO)cc(OC)c1OC
29) Cn1c(CC(=O)Nc2ccccc2C(F)(F)F)c(Sc2ccccc2)c2ccccc21
32) N#Cc1ccccc1OCC(=O)N1N=C(c2cccs2)CC1c1ccco1 (configuration not stated)
26) CCn1c(=O)c2cc(S(=O)(=O)NC3CCCCC3)ccc2n(CC)c1=O
30) O=C(CSc1nnnn1-c1ccc(Cl)cc1)N1CCNC1=O
Assay by compound,27,29,32,26,30
RN4220 kill,-2.4,16,3.6,0.7,1.1
Mtb hypoxia rep,6,-5,2,-3,-4
Mtb hypoxia rep growth,9,-5,-8,10,6
Sa ugtP lethal,4,-1,6,-5,0
Autofluor counter,4317,7531,9010,8158,3544
PrP 5UTR inh,-13,-9,-9,-9,3
BJeLR lethal,-1,-6,.,-2,.

# (more compounds)
33) O=C1NCC(c2ccccc2)N(CCc2cccc(F)c2)C1=O (configuration not stated)
34) Cc1nc2cc([N+](=O)[O-])ccc2c(=O)n1-c1ccccc1[N+](=O)[O-]
35) COc1ccc(C(=O)N/C(=C\c2cn(S(=O)(=O)N(C)C)c3ccccc23)C(=O)N2CCOCC2)cc1
36) C=CCN(CC=C)C(=S)Nc1cc(Cl)ccc1OC
37) CCOC(=O)c1cc2oc(C(c3nnnn3C3CCCCC3)N3CCOCC3)cc2[nH]1 (configuration not stated)
38) CC(=NNc1nc2ccccc2[nH]1)c1cc2ccccc2o1
39) Nc1ccc2ccc(O)cc2c1
40) Cc1cccc(CSc2nnnn2-c2ccccc2)c1
Assay by compound,33,34,35,36,37,38,39,40
RN4220 kill,3.6,1.2,2.4,1.3,-2.1,-1.2,-0.9,4.7
Mtb hypoxia rep,8,-7,6,19,.,0,24,11
Mtb hypoxia rep growth,-1,12,-1,10,.,-3,10,7
Sa ugtP lethal,3,4,0,3,-1,-3,6,-10
Autofluor counter,.,2567,4375,3285,4610,.,2890,2478
PrP 5UTR inh,.,-14,-11,-9,-2,.,-31,-2
BJeLR lethal,.,-4,-6,1,.,.,.,-5

41) COc1ccccc1-n1cnnc1SCC(=O)c1c[nH]c2ccccc12
42) O=C(O)c1cc2ccccc2oc1=O
43) O=C(NCc1ccco1)C1(S(=O)(=O)c2ccc(Cl)cc2)CC1
44) C#CCOc1ccc2c(C)cc(=O)oc2c1
45) N#C/C(=C\c1ccc(N2CCOCC2)o1)C(=O)NCCc1ccccc1
46) C=CCC(CC(=O)NCCO)C(=O)NC(COC(=O)C(CC=C)CC(=O)OC(C)(C)C)c1ccccc1 (configuration not stated)
47) COc1cc(NS(=O)(=O)c2ccc(NC(=S)NC(=O)c3sc4ccccc4c3Cl)cc2)ncn1
48) Cc1ccc(S(=O)(=O)n2nc(OC(=O)C(C)(C)C)cc2N)cc1
Assay by compound,41,42,43,44,45,46,47,48
RN4220 kill,4.8,0.1,1.0,.,.,4.2,34,-0.2
Mtb hypoxia rep,-7,8,3,.,.,9,0,14
Mtb hypoxia rep growth,0,8,6,.,.,4,4,3
Sa ugtP lethal,-14,11,9,.,.,1,39,-1
Autofluor counter,2351,4916,8359,6197,5001,.,7710,3787
PrP 5UTR inh,-27,-31,-5,-29&-8,-4,.,-8,6
BJeLR lethal,-1,10,1,4,-3,.,.,4

49) COc1ccccc1N1CN(CCc2ccccc2)CNC1=S
50) COc1cc(C(=O)Nc2oc(-c3ccccc3)c(-c3ccccc3)c2C#N)cc(OC)c1OC
51) CCOCCCNC(=O)C(NC(=O)c1ccc(NC(C)=O)cc1)c1ccc(OC)cc1 (configuration not stated)
52) NS(=O)(=O)c1ccc(NC(=O)COC(=O)CCc2ccccc2)cc1
53) CCOC(=O)CCSc1nc(C)c2ccccc2n1
54) COc1cc(OC)cc(C(=O)NCC2CCCN(Cc3ccc(SC)cc3)C2)c1 (configuration not stated)
55) Cc1c[nH]c2cccc(OCC(O)CNC(C)(C)C)c12 (configuration not stated)
56) CCC(C)(C)n1nnnc1C(c1cc2ccc(OC)cc2[nH]c1=O)N1CCc2ccccc2C1 (configuration not stated)
Assay by compound,49,50,51,52,53,54,55,56
RN4220 kill,2.3,-7.2,5.4,4.9,5.9,-3.5,-6.6,-1.8
Mtb hypoxia rep,8,1,8,7,3,13,0,-13
Mtb hypoxia rep growth,6,2,14,7,4,8,0,4
Sa ugtP lethal,8,-7,7,8,5,8,-5,-17
Autofluor counter,5017,9559,2025,5706,3631,5234,11943,11391
PrP 5UTR inh,-14,-13,-72,-30,-21,-43,-19,-15
BJeLR lethal,9,-10,-8,-2,7,3,-4,-15

57) O=S(=O)(c1ccc(NC(=S)NCCc2ccccc2)cc1)N1CCOCC1
58) COc1ccc(CNC(=O)[C@H](C)NC(=O)C2CCN(C(=O)[C@H](CCSC)NC(=O)OC(C)(C)C)CC2)cc1
59) CCCNC(=O)c1ccc(S(N)(=O)=O)cc1
60) CCCS(=O)(=O)N1CCC(C(=O)NCCc2ccc(C)cc2)CC1
61) O=C(Cc1ccc2c(c1)OCO2)NN=Cc1ccc([N+](=O)[O-])o1
62) CCCCCCn1c(O)c(C=Nc2ccccc2N2CCOCC2)c(=O)[nH]c1=S
63) Cc1nnc(SCC(=O)NNC(=O)c2ccc(F)cc2)n1Cc1ccccc1
64) CCN(CC)C(=O)C1CCCN(c2ccccc2[N+](=O)[O-])C1 (configuration not stated)
Assay by compound,57,58,59,60,61,62,63,64
RN4220 kill,2.8,1.9,2.1,-9.4,49,2.6,-0.5,2.0
Mtb hypoxia rep,8,.,-4,16,8,1,11,-5
Mtb hypoxia rep growth,2,.,6,5,15,4,7,7
Sa ugtP lethal,-1,-5,-2,-5,82,1,1,2
Autofluor counter,2051,6012,4175,2860,2876,.,3539,4362
PrP 5UTR inh,-12,-5,-19,-21,-10,.,-17,-14
BJeLR lethal,-10,-7,10,-1,.,6,.,6

65) CC(C)(C)Nc1nc(-c2ccc3c(c2)CCN3C(=O)C2CC2)cs1
66) COc1ccc(C(C)=NNC(=O)CNC(=O)COc2ccccc2)c(OC)c1
67) CSCCC(NC(=O)c1ccco1)C(=O)NNC(=O)c1n[nH]c(=O)c2ccccc12 (configuration not stated)
68) COc1ccc(-c2c(C)c3cc(O)ccc3oc2=O)cc1
69) Nc1nc(-c2cccnc2)nc(N2CCCCC2)n1
70) COc1cc2c(cc1OC)CN(C(=O)CCCOc1ccc(Cl)cc1Cl)CC2
71) O=C(CNc1cccc(Cl)c1)c1ccc(Cl)cc1
72) O=C1c2cccc3cccc(c23)C(=O)N1CCN1CCN(CC(O)COCc2ccc(Cl)cc2)CC1 (configuration not stated)
73) [N-]=[N+]=CC(=O)c1ccnc(C(=O)C=[N+]=[N-])c1
74) CCOc1ccccc1NC(=O)c1cnc2n(c1=O)CCS2
Assay by compound,65,66,67,68,69,70,71,72,73,74
RN4220 kill,4.4,3.2,-3.5,1.9,2.3,28,6.1,0.7,24,0.6
Mtb hypoxia rep,-10,-3,-4,12,.,2,2,-4,.,.
Mtb hypoxia rep growth,3,-3,5,16,.,-1,5,15,.,.
Sa ugtP lethal,-8,5,0,-7,-3,9,-2,-5,12,1
Autofluor counter,3503,.,3508,5490,2534,7831,10896,2449,4103,3963
PrP 5UTR inh,-77,.,-9,-28,-16,-6,-7,3,-10,-12
BJeLR lethal,-8,.,.,-3,-3,-9,7,6,.,-5
